Beta2AR agonist = activates human beta-2 adrenergic receptor causing internalization. response, % (no concentration beside the values). actives 0.43% (n = 340,000). AID 504454. Am2.2-beta2AR cells, FAP receptor internalization, flow cytometry; reference of the scale not given here;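 active = response above a set limit, near 3 SD of response in nonfluorescent compounds, cut at about 42% in these data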;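 note: stock transfer was 100 nL into about 11 µL; a reference agonist was the positive control; negative values mostly stem from fluorescent compounds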
Target sequence (P07550 whole entry, looked up): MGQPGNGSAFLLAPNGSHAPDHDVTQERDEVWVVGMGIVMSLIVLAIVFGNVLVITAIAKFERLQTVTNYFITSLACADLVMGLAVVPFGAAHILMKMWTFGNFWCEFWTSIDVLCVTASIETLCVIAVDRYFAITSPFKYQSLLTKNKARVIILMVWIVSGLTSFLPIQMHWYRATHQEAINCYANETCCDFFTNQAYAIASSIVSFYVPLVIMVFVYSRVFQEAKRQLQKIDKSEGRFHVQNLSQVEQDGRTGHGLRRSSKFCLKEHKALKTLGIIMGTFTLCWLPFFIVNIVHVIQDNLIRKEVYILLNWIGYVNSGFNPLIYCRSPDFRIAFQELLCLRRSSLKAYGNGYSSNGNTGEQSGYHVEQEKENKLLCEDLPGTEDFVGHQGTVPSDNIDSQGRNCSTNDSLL
HNF4A DNA FP = change in binding of human HNF4 alpha to DNA; actives 0.3% (n = 360,000); AID 1224865; activity change, % at 10 µM; HNF4a-FITC DNA binding, fluorescence polarization, 1 h; in the data active = activity change above about 30%, passing the limit was not always enough;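 note: controls were the assay level and a saturating level of protein; the project sought stronger binding though the title names inhibitors; some compounds called inactive have numbers as strong as hits; positive values seem to mean higher polarization but the record does not say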
Target sequence (P41235 whole entry, looked up): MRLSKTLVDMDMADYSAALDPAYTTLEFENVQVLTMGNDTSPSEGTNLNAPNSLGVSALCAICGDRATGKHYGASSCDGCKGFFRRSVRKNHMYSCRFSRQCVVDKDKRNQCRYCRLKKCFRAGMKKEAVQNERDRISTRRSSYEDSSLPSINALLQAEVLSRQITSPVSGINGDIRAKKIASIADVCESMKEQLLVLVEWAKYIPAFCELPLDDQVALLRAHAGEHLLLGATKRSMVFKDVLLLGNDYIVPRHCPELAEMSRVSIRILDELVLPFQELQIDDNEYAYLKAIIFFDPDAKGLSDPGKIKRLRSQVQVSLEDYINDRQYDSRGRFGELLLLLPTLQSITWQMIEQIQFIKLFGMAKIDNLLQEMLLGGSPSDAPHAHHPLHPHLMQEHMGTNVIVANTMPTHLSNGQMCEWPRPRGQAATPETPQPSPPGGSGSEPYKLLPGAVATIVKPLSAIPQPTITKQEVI
Calb FLC = C. albicans growth modulation with fluconazole. C. albicans CaCi-2 (fluconazole-resistant clinical isolate) + fluconazole, Alamar Blue growth, 48 h. growth inhibition, % (concentration not given with the values). actives 0.57% (n = 300,000). AID 1979;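 active = most replicates above 75%; inconclusive = exactly half above 75%; inactive = most below 75%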;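 note: all wells also contain fluconazole at 8 µg/ml as a sub-toxic cotreatment; 0% = median of DMSO wells and 100% = median of geldanamycin control wells; wells of about 8 µL received 7.5 nL stock; the first replicate is given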
ALR inh = inhibitors of human sulfhydryl oxidase ALR. P55789. purified ALR, DTT oxidation, H2O2 HRP-luminol luminescence. inhibition, % (concentration not given with the values). actives 3.8% (n = 290,000). AID 485317;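 active = mean and each replicate at 75% or more; inconclusive = only one of the two met; inactive = neither met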;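 note: stock transfer was 7.5 nL into about 7.5 µL; 0% = neutral wells and 100% = wells with inactivated enzyme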
Target sequence (P55789 whole entry, looked up): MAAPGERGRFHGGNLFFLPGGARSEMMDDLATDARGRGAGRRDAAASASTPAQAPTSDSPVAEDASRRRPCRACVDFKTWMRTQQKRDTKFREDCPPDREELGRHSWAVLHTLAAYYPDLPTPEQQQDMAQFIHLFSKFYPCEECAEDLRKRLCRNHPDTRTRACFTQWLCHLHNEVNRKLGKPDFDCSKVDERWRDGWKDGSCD
LANA-H2B inh = blocks KSHV LANA binding to histone H2A/H2B; cell-free LANA-H2A/H2B peptide, fluorescence polarization; inhibition, % (concentration not given with the values); actives 0.6% (n = 320,000); AID 2629; in the data active = inhibition mostly above about 10%, no sharp cut-off; inactive = mostly below about 6.7%;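 note: stock transfer was 7.5 nL into about 10 µL; 0% = median of vehicle wells and 100% = median of positive control wells; one replicate is shown; the record names a cut of 25% in any replicate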
Vif TR-FRET = HIV-1 Vif–A3G interaction blockers – biochemical, TR-FRET, GST-Vif 1-94, biotin-A3G peptide, dose response retest, primary screen (AID 1117319). TR-FRET GST-Vif / biotin-A3G peptide binding; higher % means a stronger effect; test concentration not given here; strong numbers were not always called active. inhibition, %, or IC50 in µM where a hit was titrated. actives 0.57% (n = 260,000);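 active = above the screen mean plus three standard deviations and confirmed in dose response; inconclusive = results disagree or hit not tested in dose response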;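 note: Vif residues 1-94 fused to GST binding biotinylated APOBEC3G peptide 110-148; 0% = full assay without inhibitor and 100% = GST in place of GST-Vif; retest series ran down from 100 µM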
RanGTP-Impb inh = inhibitors of RanGTP-importin-beta interaction, primary screen, biochemical, FRET, CFP-Ran, YFP-importin-beta, homogeneous; cell-free CFP-Ran/YFP-importin-beta FRET ratio; inhibition, % (test concentration not listed); actives 1.1% (n = 300,000); AID 2216;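 active = most replicates above 15%; inconclusive = exactly half above 15%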;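 note: 0% = DMSO wells and 100% = Ran loaded with GDP instead of GTP; wells of about 40 µL received 100 nL stock; the first replicate is given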
Active calls of the source: *; ? = inconclusive; . = not tested or not shown.

SMILES	Beta2AR agonist	HNF4A DNA FP	Calb FLC	ALR inh	LANA-H2B inh	Vif TR-FRET	RanGTP-Impb inh
CC(C1CC1)N(Cc1ccccc1)C(=O)NC(=O)c1cccc(F)c1 (configuration not stated)	2.9	0.8	5.9	-6.8	-6.3	-1.0%	-3.5
COc1ccc(-n2c(Cc3cccn3C)nnc2SCC(=O)Nc2cccc(Cl)c2)cc1	-4.3	2.9	3.9	17.6	1.1	-2.5%	1.8
COc1ccc(CNc2ncnc3ccccc23)cc1	-13.4	2.8	7.6	-22.2	10.7	.	5.5
COc1ccc(CC(=O)OC2CCCN(C)C2)cc1 (configuration not stated)	6.5	6.3	-2.0	-2.1	-1.0	.	1.2
CCc1nnc(NC(=O)C(NS(=O)(=O)c2ccc3c(c2)OCCO3)C(C)C)s1 (configuration not stated)	-1.1	-1.2	-0.9	.	1.8	76.7%	4.2
COc1ccc2c(c1)OC13CCN(C)CC1C2C(C(=O)c1ccc(F)cc1)C(=O)N3 (configuration not stated)	0.5	-0.4	-2.7	-12.8	-0.8	.	3.0
O=C(O)CCOc1ccc2c(c1)OCCO2	3.3	-1.3	-0.1	-24.7	2.1	-2.8%	0.0
O=C(CCNC(=O)c1ccccc1Cl)NCCC1=CCCCC1	-2.8	4.6	4.0	.	1.0	-0.7%	5.6
O=C(/C=C/c1ccnc2ccccc12)c1cccs1	6.7	1.2	65.6	16.0	0.8	-4.7%	-3.2
O=C(NC(=S)Nc1cccc(NC(=O)c2ccccc2Cl)c1)c1cccs1	-8.8	-0.9	62.7	-1.6	-2.9	.	-3.0
Cn1c2c(c(=O)n(C)c1=O)C(C(F)(F)F)(C(F)(F)F)N=C(c1ccc(Cl)cc1)N2	22.8	-2.2	84.1*	0.4	-2.3	1.7%	2.3
C=CCn1nc(-c2ccccc2)c(N2CCCCC2)cc1=O	-0.6	0.9	-17.8	3.1	-1.7	2.2%	-2.6
O=C(Nc1cc(S(=O)(=O)N2CCOCC2)ccc1N1CCOCC1)c1cc2c(s1)CCC2	-0.8	-0.4	0.3	-1.5	1.1	-10.2%	0.5
c1cncc(Nc2nc(-c3cccs3)cs2)c1	-8.4	6.3	-15.6	95.9*	0.4	-1.5%	6.1
CC(=O)c1cccc(NC(=O)NC2CC(=O)N(c3ccc4c(c3)OCCO4)C2)c1 (configuration not stated)	-2.5	-2.8	-3.7	-0.3	-10.0	3.1%	-0.6
CCOC(=O)c1c(CSc2ccccc2)n(C)c2cc(Br)c(OC)c(O)c12	-8.4	2.5	4.4	.	-0.1	.	3.4
CCCc1nc2nc(C)c(NS(=O)(=O)c3ccc(C(C)(C)C)cc3)c(=O)n2[nH]1	24.7	1.6	-5.6	22.0	6.1	.	0.4
Cc1cccc(NC(=O)c2ccc(N3CCOCC3)c([N+](=O)[O-])c2)n1	-0.7	-1.8	11.4	.	2.6	4.1%	0.1
Cc1ccc(S(=O)(=O)N/N=C/c2ccccc2O)cc1[N+](=O)[O-]	3.9	-4.1	16.1	95.5*	2.8	5.3%	-2.1
Cc1ccc2cccc(OCC(=O)NCc3ccco3)c2n1	0.6	2.1	10.2	-1.5	-0.9	5.8%	0.1
CC(=O)N(C)c1ccc(NC(=S)Nc2ccc(C(C)C)cc2)cc1	6.4	1.3	-5.7	.	1.8	0.1%	3.0
Cc1ccc(C(=O)O/N=C(\N)Cc2cccs2)cc1[N+](=O)[O-]	6.9	-7.0	-0.9	0.9	-2.1	.	-0.5
CN(c1ccccc1C(=O)Nc1ccc2ccccc2c1)S(C)(=O)=O	8.0	4.5	-3.5	8.2	0.9	.	-1.0
CCOc1ccccc1/C=C(/NC(=O)c1ccccc1)C(=O)NC(C)c1ccccc1 (configuration not stated)	-1.6	-0.5	?	0.7	-3.9	-6.0%	0.5
CNc1oc(-c2ccc(Cl)cc2)nc1P(=O)(c1ccccc1)c1ccccc1	-2.2	-0.8	-7.1	1.4	0.0	4.0%	3.0
COc1ccc(NC(=O)NNC(=O)c2ccccc2-n2cccc2)cc1OC	-1.3	2.2	8.0	.	2.2	7.8%	-0.8
COc1ccc(NC2CCCN(C(=O)CN3CCOC3=O)C2)cc1 (configuration not stated)	-0.8	4.3	-0.8	98.3*	-15.0	4.0%	-1.7
O=C(Nc1ccc(CSc2ccccc2)cc1)c1ccccc1	-8.7	-1.8	-18.7	-28.6	-13.4	-9.4%	0.5
O=S(=O)(c1ccc2c(c1)C(=NO)c1cc(S(=O)(=O)N3CCCCC3)ccc1-2)N1CCCCC1	30.5	-0.6	-14.3	-8.3	2.1	-4.1%	4.4
O=C1NC(Cc2c[nH]c3ccccc23)C(=O)N1Cc1ccccc1 (configuration not stated)	7.3	-2.1	4.8	0.0	2.8	.	-0.3
CC(C)=CCCC(C)CN1CCC(n2nccc2NC(=O)c2ccc3c(c2)OCO3)CC1 (configuration not stated)	13.2	-1.9	5.3	3.3	-3.6	6.2%	2.5
CCC(=NCCc1c(C)[nH]c2ccc(OC(F)(F)F)cc12)C1=C(O)CC(c2ccccc2)CC1=O (configuration not stated)	19.9	-6.3	21.9	.	-4.1	?	-14.1
COc1ccc(NC(=O)c2ccco2)c(NC(=O)Cc2cccs2)c1	-14.4	-0.6	1.9	0.1	0.8	7.5%	?
O=C1C(=O)N(CCN2CCOCC2)C(c2ccccn2)/C1=C(/O)c1ccc(Cl)cc1 (configuration not stated)	5.1	1.7	5.2	-13.1	-1.4	?	20.4*
Oc1oc(-c2ccc(Br)cc2)nc1C=Nc1ccc(Br)cn1	-3.6	1.7	17.9	-0.4	7.8	-19.2%	-1.9
CC(=O)C1CCC2C3CC(C)=C4CC(O)CCC4(C)C3CCC12C (configuration not stated)	-2.6	-0.4	.	.	.	?	.
CC(C)c1ccccc1NC(=O)C1CC(=O)N(C2CCCC2)C1 (configuration not stated)	-4.8	1.3	.	-2.0	-2.9	.	.
COC(=O)COc1c(Cl)cc(C(c2c(C)[nH][nH]c2=O)c2c(C)[nH][nH]c2=O)cc1OC	2.3	-0.8	-0.3	67.0	7.7	4.3%	-7.2
CCCCNC(=O)/C(=C/c1ccco1)NC(=O)c1ccco1	-3.3	-0.5	-8.9	26.9	2.9	.	?
O=C(NNc1nc2c(F)cccc2s1)C1COc2ccccc2O1 (configuration not stated)	3.5	0.7	1.4	21.0	2.1	-3.4%	-0.9
Cn1c(C(=O)O)cnc1Sc1ncc(C(F)(F)F)cc1Cl	-0.4	3.0	-12.1	-7.5	-1.7	-1.3%	5.3
CCN(Cc1ccccc1)Cc1c(F)cccc1F	-7.4	0.8	-6.9	-6.1	3.0	3.9%	1.8
CCCn1c(=O)[nH]c(=O)c2c1nc(-c1ccc(C(F)(F)F)cc1)n2CCOC	-14.3	0.5	-5.7	-3.0	2.1	.	10.0
CCCn1c(SCC(=O)c2ccc(CC)cc2)n[nH]c1=O	0.4	-0.8	-0.6	26.1	-2.0	4.7%	0.8
O=C(NCCN1CCOCC1)C1CCN(S(=O)(=O)N2CCCCC2)CC1	0.4	-1.5	9.9	1.1	3.6	13.4%	-0.1
O=C(Nc1nccs1)Oc1ccccc1	8.3	5.2	-25.7	8.6	-1.2	-4.5%	-0.9
CCOC(=O)c1c(NC(=O)/C=C/C(=O)O)sc(C)c1-c1ccc(F)cc1	16.8	-1.9	-2.4	60.3	9.3	.	-3.4
CCCn1c(=S)[nH]c2ccc(C(F)(F)F)cc21	-0.8	1.8	-3.6	96.9*	-0.6	-4.1%	?
c1ccc(CCN2CN(CCCN3CCOCC3)c3nc4ccccc4n3C2)cc1	-16.5	0.9	1.4	.	0.7	-3.7%	3.4
O=C(Nc1cccc(S(=O)(=O)N2CCCC2)c1)c1ccncc1	-1.6	8.0	-6.7	-1.7	2.8	0.0%	2.6
CN1CCN(c2cc(C(F)(F)F)nc3ccc(F)cc23)CC1	-2.4	-0.3	-3.6	45.5	-1.2	.	-1.2
COc1ccc(CNC(=O)c2ccc(N3CCC4(CC3)CC(c3ccc(Cl)cc3)=NO4)c(N)c2)cc1	.	.	1.6	-5.7	1.6	.	-2.3
COCCSc1ccccc1C(=O)Nc1cc(C)on1	-1.1	-0.7	-5.2	4.0	0.4	0.9%	-3.0
Cc1ccccc1Sc1ncccc1[N+](=O)[O-]	8.3	-2.2	-0.3	9.8	6.8	.	0.6
COc1ccc(CCNC(=O)C2CCN(C(=O)c3ccc(C(C)(C)C)cc3)CC2)cc1	9.0	-2.8	-3.4	-3.1	-0.1	.	?
CCCCc1ccc(NC(=O)N2CCNC(=O)C2CC(=O)Nc2ccsc2C(=O)OC)cc1 (configuration not stated)	-2.7	-0.1	1.1	-16.9	4.6	-5.3%	-1.0
CCc1cc2cc(C)cc(C)c2nc1SCC(=O)Nc1cc(C)on1	0.3	-0.1	25.5	-0.5	-0.4	-15.6%	-0.6
CCCN(CCC)C(=O)Nc1ccc(F)cc1F	-1.8	4.7	2.1	1.1	6.2	?	6.4
O=C(Nc1ncc([N+](=O)[O-])s1)c1ccc2c(c1)OCO2	16.3	-0.8	-16.4	24.1	-4.3	7.9%	2.1
COC1=NS(=O)(=O)c2ccccc21	-3.3	0.7	6.0	-1.8	1.3	8.7%	3.8
Next records follow:
SMILES	Beta2AR agonist	HNF4A DNA FP	Calb FLC	ALR inh	LANA-H2B inh	Vif TR-FRET	RanGTP-Impb inh
Cc1ccc(C)c(N(C)C(=O)c2ccc3c(=O)n4c(nc3c2)CCCCC4)c1	-6.5	-5.3	6.6	-2.4	1.8	11.2%	1.5
O=C(O)CCC(=O)Nc1cccc(-c2nc3ccccc3o2)c1	13.7	0.4	-3.0	-2.7	0.4	.	5.1
CCOc1cc(CN2CCN(c3ccc(C(C)=O)cc3)CC2)ccc1OC	1.5	2.4	22.9	.	-3.9	0.6%	?
CCn1c(C)[n+](CCCS(=O)(=O)[O-])c2cc(Cl)c(Cl)cc21	2.0	-0.9	-0.8	-7.9	-1.0	18.0%	0.7
COc1cccc(/C=N/N2C(=O)NC3(CCCCC3)C2=O)c1O	3.4	2.2	-2.3	84.2*	-0.4	-0.9%	-2.6
O=C(Cn1c2ccc(F)cc2c2nc3n(c(=O)c21)CCS3)N1CCCC1	-4.7	4.8	89.2*	2.3	-0.9	2.8%	-0.6
Cc1nonc1CN(C)C(=O)c1ccc(OC2CCN(Cc3ccccn3)CC2)cc1	-4.3	2.2	-8.1	-16.0	-0.8	-5.6%	4.2
COc1cc(OC)c(S(=O)(=O)Nc2ccccc2NC(=O)CN2CCOCC2)cc1NC(C)=O	-1.2	-0.5	18.2	-5.5	-6.4	6.0%	-0.4
O=C(COC(=O)/C=C/c1ccc2ccccc2n1)NNC(=O)c1ccc([N+](=O)[O-])cc1	-2.0	2.5	.	.	.	0.1%	.
Cc1cc(C)n(CC(=O)N2CCCC(N3CCN(c4ccccc4C)CC3)C2)n1 (configuration not stated)	-0.7	0.6	-4.5	18.9	13.2	-4.0%	?
Brc1ccc(OCCCCN2CCCCC2)cc1	-5.2	-1.5	0.6	-2.5	-4.4	.	1.5
Cc1c(-n2c(=S)[nH]c3ccccc3c2=O)c(=O)n(-c2ccccc2)n1C	-3.1	-0.7	-15.1	.	-3.7	-2.1%	-2.0
Cc1cccc(NC(=O)CSCC(=O)Nc2ccccc2N2CCCCC2)c1	-4.7	-1.6	-1.4	-9.5	-1.0	-2.0%	4.0
COc1ccc(C(=O)CN2C(=O)c3ccccc3C2=O)c(OC)c1	-1.9	0.3	7.5	-2.1	3.7	.	?
CC1=C(C(=O)Nc2cc(C(=O)N(C)Cc3ccccc3)ccc2C)SCCO1	-4.0	1.9	-12.4	-13.8	-3.0	3.8%	1.1
COc1cccc(NC(=O)C2CC(=O)N/C(=N/NC(=O)c3ccc(C)cc3)S2)c1 (configuration not stated)	-4.0	0.5	5.1	8.8	6.2	-6.3%	3.7

Source: PubChem BioAssay (several laboratories)
